Screening results (PubChem BioAssay)
VACV mCherry inh: qHTS for Stage-Specific Inhibitors of Vaccinia Orthopoxvirus: mCherry Reporter Primary qHTS; Vaccinia virus mCherry reporter infection, fluorescence; about a quarter of the inactives have no number; Potency, µM (top dose mostly 36.5 µM), inactives show at the top dose activity change, negative = inhibition, actives largely listed as inhibitors; 0.63% of 310,000 active; active = well fitted inhibition curve with a large enough effect; inconclusive = small, poorly fitted or top-dose-only effect; inactive = no such curve, though single readings can be large or run the other way; tested in A549 cells; further: nearly all actives have a fitted effect of over 35% in size; inactives centre near -10
VACV Venus inh: qHTS for Stage-Specific Inhibitors of Vaccinia Orthopoxvirus: Venus Reporter Primary qHTS | Vaccinia virus Venus reporter expression, fluorescence | Potency, µM (doses to about 36.5 µM), inactives show at the highest dose activity change, negative = inhibition, usual class: inhibitors | 0.46% of 330,000 active | AID 720580, 2013; active means well fitted inhibition curve with a large enough effect; inconclusive means small, poorly fitted or top-dose-only effect; inactive means no such curve, though single readings can be large or run the other way; tested in A549 cells; further: nearly all actives have a fitted effect of over 30% in size; inactives centre near -10
Starred values were filed as active, the others as inactive; i = inactive; ? = inconclusive; nt = not tested or not shown; & = joins results of further samples; [ ] = another dose, or the depositor's remark. On the % scale 0 is the no-effect control and ±100 the full control effect; potency means the concentration at half of the fitted maximal effect.

SMILES	VACV mCherry inh	VACV Venus inh
Cc1c(NC(=O)C(C)Sc2ccc3ccccc3n2)c(=O)n(-c2ccccc2)n1C (configuration not stated)	nt	-18%
Cc1cccc(NC(=O)CN(C)C(C)C(=O)Nc2ccc(S(=O)(=O)N3CCCC3)cc2)c1C (configuration not stated)	?	-22%
CC(=O)C[C@H]1c2ccccc2S(=O)(=O)N1C1CCCCC1	0%&-11%	-12%&-4%
Cc1nn(C)c(C)c1CN(C)C(=O)C1c2ccccc2Oc2ccccc21	-15%	-9%
CN(Cc1cn(Cc2ccccc2)nc1-c1ccc2c(c1)OCO2)Cc1nccn1C	-4%	-14%
Cc1nn2c(=O)c(NC(=O)c3ccc(Cl)cc3)cnc2s1	-8%	-8%
Cc1cc(F)ccc1S(=O)(=O)Nc1ccc(O)c(Sc2ncn[nH]2)c1	-27%	-3%
NS(=O)(=O)c1cccc(NC(=O)CSc2nc3ccccc3c(=O)n2CC2CCCO2)c1 (configuration not stated)	-11%	-4%
COc1ccc(NC(=S)N2CCN(c3ncccn3)CC2)cc1	-4%	-9%
O=C(COC(=O)c1ccc[n+]([O-])c1)Nc1ccc(Cl)cc1[N+](=O)[O-]	-26%	-15%
COc1ccc(CCNC(=O)c2cnc3ccccn3c2=O)cc1	0%	-16%
Cc1c(C=O)c2ccccc2n1Cc1ccc([N+](=O)[O-])cc1	?	-22%
COc1cc(NC(=O)C2CCCN(c3ncnc4c3nc3n4CCCCC3)C2)cc(OC)c1OC (configuration not stated)	i	-27%
CC(C)C#Cc1cnc2c(c1)C(=O)N([C@H](C)CO)C[C@@H](C)[C@H](CN(C)C(=O)Nc1ccccc1F)O2	i	-24%
COc1cccc(CNC(=O)CN2C(=O)CSc3ccc(S(=O)(=O)N4CCCC4)cc32)c1	2%	-5%
CC1=NN(c2ccccc2)C(=O)/C1=C\C=C1/N(C)c2ccccc2C1(C)C	-10%	-2%
CCCCCNC(=O)C(c1cccc2ccccc12)n1c(=O)c(-c2cc3ccccc3[nH]2)nc2ccccc21 (configuration not stated)	i	-15%
CCOc1cccc(C2c3c(oc4ccc(F)cc4c3=O)C(=O)N2CCOC)c1 (configuration not stated)	-13%	-7%
Cc1ccn2c(=O)nc(SCC(=O)N3CCCC3)nc2c1	-11%	-4%
Cc1cccc(Cn2nc(C)cc2NC(=O)CCCn2ccc([N+](=O)[O-])n2)c1	-11%	-16%
COc1ccc(OC)c(-n2nnnc2SCC(=O)NCc2ccc3c(c2)OCO3)c1	-12%	-3%
COc1ccc(CCNC(=O)CCc2cn(Cc3ccc(F)cc3)c3ccccc23)cc1OC	-26%	-18%
CCCC(=O)Nc1nnc(SCC)s1	-10%	-11%
COc1ccc(C(O)Cn2c(=N)n(CCCN(C)C)c3ccccc32)cc1 (configuration not stated)	nt	-21%
CC(=O)Nc1ccc(-c2ccnc3c2CC(C)(C(=O)NCc2ccc(N4CCN(C)CC4)cc2)O3)cc1 (configuration not stated)	-14%	-12%

Entries of single compounds as entered above:
COc1ccc(NC(=S)N2CCN(c3ncccn3)CC2)cc1 is listed with VACV mCherry inh = -4%; VACV Venus inh = -9%
COc1ccc(C(O)Cn2c(=N)n(CCCN(C)C)c3ccccc32)cc1 (configuration not stated) is listed with VACV mCherry inh = nt; VACV Venus inh = -21%

Random excerpt: three entries already listed, in no set order.
SMILES	VACV mCherry inh	VACV Venus inh
COc1ccc(NC(=S)N2CCN(c3ncccn3)CC2)cc1	-4%	-9%
CC1=NN(c2ccccc2)C(=O)/C1=C\C=C1/N(C)c2ccccc2C1(C)C	-10%	-2%
CCCC(=O)Nc1nnc(SCC)s1	-10%	-11%

Continued.
SMILES	VACV mCherry inh	VACV Venus inh
Cn1ncc(C#N)c1NC(=O)C1CC(c2ccccc2Cl)=NO1 (configuration not stated)	i[7.34 µM]	-14%[7.34 µM]
O=C(CCCC(=O)n1cnc2ccccc21)n1cnc2ccccc21	nt	-17%
O=C1Cc2ccccc2C(=O)N1Cc1ccccc1	-8%	-9%
COc1ccc(Cl)cc1NC(=O)C(C)Sc1nnc(C2CC2)n1C1CC1 (configuration not stated)	-1%	-10%
C=CCNC(=O)c1onc(CSc2ccccc2)c1C(=O)NCC=C	i	-16%
CN1CCN(c2ccc(CNS(=O)(=O)c3ccccc3)cc2)CC1	-16%	3%
Nc1ccc(Br)cc1Br	i	-10%
CCC(=NCCCn1ccnc1)c1c(O)n(-c2ccccc2)c(=O)[nH]c1=O	-5%	-8%
CCCOc1ccc(-c2csc(N)n2)cc1[N+](=O)[O-]	?	?
COc1cc(C#Cc2c(-c3cncn3C)n(C)c3ccc(Br)cc23)cc(OC)c1	-15%	?
COc1ccc(N2C(=O)C(CC(N)=O)N(NC(=O)CCc3ccccc3)C2=O)cc1 (configuration not stated)	-8%	-13%
NCCCCCNC(=O)c1nc[nH]c1C(=O)NCC(=O)OCc1ccccc1	-12%	-3%
CC(C)(C)C(=O)NC(=S)NCc1ccccc1	i	-11%
CCc1nc2ccc(C(=O)NCCCN3CCCC3=O)cn2c1N(CCC(C)C)CCN(C)C	i	-6%
O=C(OCC(=O)N1CCN(C(=O)c2ccco2)CC1)c1cc(=O)c2ccccc2o1	-16%	-9%
Cc1ccc(C2=CSC3=NS(=O)(=O)CCN23)cc1C	i	-4%
Cc1ccc(-n2nnnc2CNC(=O)C2CC(=O)N(c3ccccc3)C2)cc1C (configuration not stated)	-14%	0%[7.34 µM]
COc1ccc(C(=O)CSc2n[nH]c(=O)[nH]c2=O)cc1	?	-19%
O=c1ccc(-c2nc3ccccc3n2C(CCc2ccccc2)c2nc3ccccc3[nH]2)c[nH]1 (configuration not stated)	-13%	-12%
Cc1cc(/C=C2\SC(=O)NC2=O)c(C)n1-c1ccc(N(C)C)cc1	i	-19%
COc1ccc2nc(C)cc(Nc3ccc(N4CCN(C)CC4)cc3)c2c1	?	10µM*
Cc1cccc(OCCSc2nc(N)cc(N)n2)c1	-22%	-5%
CN(N=Cc1ccccc1)C(=S)Nc1ccccc1	-13%	-3%
CCOCCCNS(=O)(=O)c1ccc(NC(=O)c2ccc(OC)c([N+](=O)[O-])c2)cc1	-21%	-5%
CCOC(=O)C1=C(C)NC(=O)NC1c1cn(-c2ccccc2)nc1-c1cccs1 (configuration not stated)	?	-14%

Copied from the list.
Cc1cc(/C=C2\SC(=O)NC2=O)c(C)n1-c1ccc(N(C)C)cc1 | VACV Venus inh: -19%
CN1CCN(c2ccc(CNS(=O)(=O)c3ccccc3)cc2)CC1 | VACV Venus inh: 3%
O=C1Cc2ccccc2C(=O)N1Cc1ccccc1 | VACV Venus inh: -9%

Next entries.
SMILES	VACV mCherry inh	VACV Venus inh
O=C(CCc1nc(-c2cccs2)no1)Nc1ccc([N+](=O)[O-])cc1	-7%	-3%
COc1cc2c(cc1NC(=O)c1cccc(Br)c1)CCCC2	-2%	-24%
Cc1cc(C)c(Cn2c(=O)n(CCCC(=O)NCc3ccco3)c(=O)c3sccc32)c(C)c1	-24%	-20%
CCN(CC)S(=O)(=O)c1ccc(C(=O)Nc2ccc(Cc3ccncc3)cc2)cc1	i	-23%
COc1cc(/C=C/c2[nH]c(=O)[nH]c(=O)c2[N+](=O)[O-])ccc1OCCC(C)C	-7%	-4%
O=C(C[n+]1ccc2ccccc2c1)c1ccccc1	-7%	-3%
CCCCn1nc(C(=O)N(C)Cc2nc3ccccc3c(=O)[nH]2)c2ccccc2c1=O	i	-13%
CC1CCCCN1Cc1c(O)ccc2c(=O)c(-c3ccc(Cl)cc3)c(C(F)(F)F)oc12 (configuration not stated)	-19%	-17%
C#CC[N+](C)(C)CCCCCCCCCC	16µM*	14µM*
CCCCc1nnc(NC(=O)C(C)Sc2nc(C)cc(=O)[nH]2)s1 (configuration not stated)	-9%	-1%
CN(C)c1ccc(-c2cc([C@H]3[C@@H]4C=CCC[C@@]4(C)C(=O)N3Cc3ccccc3)ccc2F)cc1	?	-6%
CC(=O)OC[C@@H]1CN(Cc2ccccc2)C[C@H](n2cnc3c(NC(C)C)ncnc32)O1	i	-5%
Nc1cc(N)nc(SCc2ccccc2Cl)n1	i	-9%
O=S1(=O)CC2N=C(N(Cc3c(F)cccc3Cl)c3ccccc3F)SC2C1 (configuration not stated)	-22%	-10%
O=C(c1cnc(N2CCN(c3ccccn3)CC2)c2ccccc12)N1CCN(c2cccc(Cl)c2)CC1	?	?
CCN(CC)CCCNC(=O)C1c2cc(OC)c(OC)cc2C(=O)N(C)C1c1cccnc1 (configuration not stated)	-1%	0%
CCOC(=O)C1=NS(=O)(=O)NC(C)=C1	i	1%
Cc1ccc(Sc2c(C)nn(C(=O)C3CC3)c2C)cc1	-3%	-12%
CC(C)OCCCNCc1cccs1	nt	-3%
CC(C)NS(=O)(=O)c1ccc(CCC(=O)N2CCCC2)cc1	5%	-8%
CCCCCNCC(=O)Nc1cc(C(F)(F)F)ccc1OCCOC	-11%	-13%
O=C(NC(=C(Cl)Cl)P(=O)(c1ccccc1)c1ccccc1)c1ccccc1	-14%	-12%
COc1ccc(N(Cc2cccs2)C(=O)COc2cccc(Cl)c2)cc1	-13%	-8%
CCOc1ccc(S(=O)(=O)N2CCCCC2)cc1NC(=O)c1c(CC)noc1C	-18%	-11%
COc1cc(NC(=O)Cn2nc(C(F)(F)F)c3c2CCC3)cc(OC)c1OC	-14%	-12%

Brought forward from above: seven entries, followed by the next part.
SMILES	VACV mCherry inh	VACV Venus inh
CC(C)OCCCNCc1cccs1	nt	-3%
CC(C)NS(=O)(=O)c1ccc(CCC(=O)N2CCCC2)cc1	5%	-8%
CCCCCNCC(=O)Nc1cc(C(F)(F)F)ccc1OCCOC	-11%	-13%
O=C(NC(=C(Cl)Cl)P(=O)(c1ccccc1)c1ccccc1)c1ccccc1	-14%	-12%
COc1ccc(N(Cc2cccs2)C(=O)COc2cccc(Cl)c2)cc1	-13%	-8%
CCOc1ccc(S(=O)(=O)N2CCCCC2)cc1NC(=O)c1c(CC)noc1C	-18%	-11%
COc1cc(NC(=O)Cn2nc(C(F)(F)F)c3c2CCC3)cc(OC)c1OC	-14%	-12%
Cc1ccc(-c2ccc(C(=O)N3CCc4nnc(CNC(=O)c5ccccc5)n4CC3)cc2)cc1	?	-15%
O=C(CN1CCOCC1)NNc1c2ccccc2nc2ccccc12	?	-5%
Cc1c(Cl)c([N+](=O)[O-])nn1CC(=O)N1CCCc2ccccc21	-2%	2%
O=c1ccnc(SCCc2ccc([N+](=O)[O-])cc2)[nH]1	i	0%
CC1COC(=C2C(=O)OCC2C)C1 (configuration not stated)	i	-3%
CCOC(=S)SCC(=O)Nc1nccs1	-3%	-14%
COc1ccccc1NC(=O)C1CCCN(S(=O)(=O)c2ccc(-n3cnnn3)cc2)C1 (configuration not stated)	-6%	-5%
CCOc1ccc(NC(=O)C2CCCN(c3cnccn3)C2)cc1 (configuration not stated)	-8%&3%	-12%&-4%
Cc1c(C)c2c(OCC(=O)Nc3ccc(CCO)cc3)cc3c(c2oc1=O)CCC(C)(C)O3	-1%	-3%
Cc1cc(S(=O)(=O)NC2CCCC2)ccc1-n1cnnn1	-28%	-2%
CC(C)(C)OC(=O)N1CCC(c2c(C(=O)N3CCCCC3)cnn2-c2cccc(F)c2)CC1	0%	-4%
CCOc1ccc(-c2csc(-c3nc(-c4ccc(Br)s4)cs3)n2)cc1	-3%	-5%
CCc1nc2ccc(C(=O)NCCCN3CCN(c4ccccc4F)CC3)cc2nc1CC	-3%	-20%
CCn1cc(/C=N\NC(=O)Cc2ccc([N+](=O)[O-])cc2)c(C)n1	-13%	-4%
